HIV Env fusion: inhibitors of HIV-1 Env-driven cell-cell fusion, primary screen, HeLa-JRFL effector, CEM21 target cells, luciferase; inhibition, % at 12.3 µM; hit rate 1.1% among 360,000; AID 651610, 2012;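 active means mean replicate inhibition score of at least 50 and every replicate individually at or above 50; inconclusive means only one of the two criteria met; inactive means mean below 50 and not all replicates reaching 50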;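 further: 0% = plate neutral controls and 100% = maraviroc near 300 nM; one replicate is shown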
Starred values were filed as active, the others as inactive; ? = inconclusive; [ ] = dose if it differs, or a comment.

SMILES | HIV Env fusion
COc1ccc(NC(=O)N(C)C[C@H]2Oc3cc(-c4cccc(C(=O)N(C)C)c4)ccc3S(=O)(=O)N([C@@H](C)CO)C[C@@H]2C)cc1 | -47[16.7 µM]
O=C(N[C@H](C(=O)N1CCC[C@H]1C(=O)NC1CCCC1)C1CCCCC1)c1nccs1 | -2
O=C(C[C@@H]1CC[C@@H](NC(=O)Cc2ccccn2)[C@H](CO)O1)NCCc1ccncc1 | -12[16.7 µM]
COc1ccccc1S(=O)(=O)Nc1ccc2c(c1)C(=O)N(C)C[C@H](OC)[C@H](C)CN[C@@H](C)CO2 | -8[16.7 µM]
CO[C@H]1O[C@H](CO)[C@@H](OC(=O)Nc2cccc(F)c2)[C@H](OC(=O)Nc2ccccc2)[C@@H]1OC(=O)Nc1ccccc1 | 17[16.7 µM]
CCCNC(=O)N1CC2(CCN(S(=O)(=O)c3cccc(OC)c3)CC2)c2c(n(C)c3cc(OC)ccc23)[C@@H]1CO | -6[16.7 µM]
CO[C@H]1CN(C)C(=O)c2ccc(NS(=O)(=O)c3cccc(C)c3)cc2OC[C@H](C)NC[C@@H]1C | -10[16.7 µM]
CC(C)NC(=O)Nc1ccc2c(c1)C(=O)N([C@H](C)CO)C[C@H](C)[C@@H](CN(C)C(=O)c1ccncc1)OCCCC[C@H](C)O2 | 3[16.7 µM]
C[C@H](CO)N1C[C@H](C)[C@H](CN(C)Cc2ccncc2)Oc2ccc(NC(=O)Nc3cccc4ccccc34)cc2CC1=O | 21[16.7 µM]
COc1ccccc1C#Cc1cnc2c(c1)C(=O)N([C@H](C)CO)C[C@H](C)[C@H](CN(C)S(=O)(=O)c1cn(C)cn1)O2 | -15[16.7 µM]
CN(C)c1ccc2c(c1)[C@@H]1C[C@H](CC(=O)O)O[C@@H](CO)[C@@H]1O2 | 8[16.7 µM]
C[C@H]1CN([C@@H](C)CO)C(=O)CCCn2cc(nn2)CO[C@H]1CN(C)Cc1ccc2c(c1)OCO2 | -5[16.7 µM]
O=C(C[C@@H]1CC[C@H]2[C@@H](COC[C@@H](O)CN2Cc2cccc(C(F)(F)F)c2)O1)NCCc1ccncc1 | -1[16.7 µM]
Cc1noc(C)c1S(=O)(=O)N1CCCc2nc(-c3ccc(Br)cc3)ccc21 | -5
C[C@H](NC(=O)N(C)C[C@H]1OCc2ccccc2-c2c(n(C)c3ccccc23)C(=O)N([C@@H](C)CO)C[C@@H]1C)c1ccccc1 | 40[16.7 µM]
CC1=C2[C@@H](c3ccccc3)OB(O)C[C@@H]2[C@@H]2C(=O)N(Cc3ccccc3)C(=O)[C@@H]2C1 | 17[16.7 µM]
CN(NC(=O)C(=O)NCc1ccco1)C(=O)NC1CCCCC1 | 1
CC(C)CC#Cc1ccc2c(c1)O[C@H](CN(C)C(=O)C1CC1)[C@@H](C)CN([C@H](C)CO)S2(=O)=O | -1[16.7 µM]
CC=Cc1ccc2n(c1=O)C[C@H]1[C@H](CO)[C@@H](C(=O)NCCCN(C)C)[C@@H]2N1C(=O)c1ccccc1F (mixture of isomers) | 10[16.7 µM]
CNC[C@H]1OCCCC[C@@H](C)Oc2ccc(NS(=O)(=O)c3ccc(F)cc3)cc2C(=O)N([C@@H](C)CO)C[C@@H]1C | -4[16.7 µM]
COc1ccc(NC(=O)Nc2ccc3c(c2)[C@H]2C[C@@H](CC(=O)N4CCN(C)CC4)O[C@H](CO)[C@H]2O3)cc1 | 0[16.7 µM]
CO[C@H]1CC[C@H]2CCN(C)C(=O)[C@@H](C)[C@H](OC)CN(C)C(=O)c3cccc(C#N)c3OC[C@H]1O2 | -2[16.7 µM]
O=C(NCC1CCN(C(=O)C(=O)c2cccs2)CC1)c1ccc2c(c1)OCO2 | ?
O=C(N[C@H](Cc1ccccc1)C(=O)NCc1cccc2ccccc12)[C@H]1O[C@@H](n2ccc(=O)[nH]c2=O)[C@H](O)[C@@H]1O | 16
CC(C)(C)[S@@](=O)N1Cc2cc(C(=O)N3CCOCC3)nc(-c3cccc(-c4ccc(C#N)cc4)c3)c2[C@H]1CCO | -12[16.7 µM]
OC(c1ccccc1)(c1ccccc1)C1CCN(CCCOc2ccc(-c3ccncc3)cc2)CC1 | 1
C[C@@H]1CN([C@@H](C)CO)C(=O)Cc2cc(NS(=O)(=O)c3ccc(Cl)cc3)ccc2O[C@@H]1CN(C)Cc1ccc(C(=O)O)cc1 | -7[16.7 µM]
N#C[C@H]1[C@H](c2ccc(-c3cccc(F)c3)cc2)[C@H](CO)N1C(=O)NC1CCCCC1 | 43[16.7 µM]
CO[C@H]1O[C@H](CO)[C@@H](OC(=O)Nc2ccc(C(F)(F)F)cc2)[C@H](OC(=O)Nc2ccc3c(c2)OCO3)[C@H]1OC(=O)Nc1ccc2c(c1)OCO2 | -9[16.7 µM]
COC(=O)c1cc2c(c3c4cc(F)ccc4n(C(=O)c4ccccc4)c13)C(=O)N(Cc1ccco1)C2 | 25
COCC(=O)Nc1ccc2c(c1)OC[C@H](C)N(C(=O)c1ccccn1)C[C@H](C)[C@H](OC)CN(C)C2=O | -2[16.7 µM]
C[C@@H]1CN([C@@H](C)CO)C(=O)c2cc(N(C)C)ccc2O[C@@H](C)CCCCO[C@@H]1CN(C)C(=O)CCCN(C)C | 13[16.7 µM]
O=C(C[C@@H]1CC[C@@H]2[C@H](COC[C@@H](O)CN2Cc2nccs2)O1)NCc1ccc(F)cc1 | 0[16.7 µM]
O=C(C[C@@H]1C[C@@H]2c3cc(NS(=O)(=O)c4ccc(F)cc4)ccc3O[C@@H]2[C@H](CO)O1)NCc1cccnc1 | -18[16.7 µM]
Cc1onc(-c2c(F)cccc2Cl)c1-c1ncc(-c2ccc(Cl)cc2)o1 | 22
COc1ccc(CC(=O)NCC2CCN(C(=O)C(=O)c3cc4ccccc4o3)CC2)cc1 | -1
COc1ccccc1CCn1cnc(-c2ccc(F)cc2F)c1CC(C)C | 2
COCC(=O)Nc1ccc2c(c1)C(=O)N(C)C[C@@H](OC)[C@H](C)CN(C(=O)Cc1cccnc1)[C@H](C)CO2 | -1[16.7 µM]
CC(C)CC1NC(=O)c2ccc(Cl)cc2-n2c1nc1cc(F)ccc1c2=O (stereo not given) | -41
Cc1noc(C)c1NC(=O)Nc1cccc2c1O[C@@H](CN(C)Cc1ccncc1)[C@@H](C)CN([C@H](C)CO)C2=O | -13[16.7 µM]
Cc1ccc(S(=O)(=O)N(C)C[C@H]2Oc3ccc(NC(=O)Nc4cccc5ccccc45)cc3C(=O)N([C@@H](C)CO)C[C@@H]2C)cc1 | -6[16.7 µM]
COc1ccc(C2CC(=O)C(c3cccc(OC)c3)=CN2Cc2ccccc2)cc1 (stereo not given) | -15
O=C(C[C@@H]1CC[C@H]2[C@@H](COC[C@@H](O)CN2Cc2cc(F)ccc2F)O1)N[C@@H]1CCN(Cc2ccccc2)C1 | -11[16.7 µM]
O=C(C[C@H]1C[C@H]2c3cc(NS(=O)(=O)c4ccccc4)ccc3O[C@H]2[C@@H](CO)O1)N1CCOCC1 | 12[16.7 µM]
CO[C@H]1CN(C)C(=O)c2ccc(NC(=O)Nc3cccc(F)c3)cc2OC[C@H](C)NC[C@H]1C | 75*[16.7 µM]
C[C@@H]1CN([C@H](C)CO)C(=O)c2cc(NS(=O)(=O)c3ccccc3)ccc2O[C@@H](C)CCCCO[C@@H]1CN(C)CC1CC1 | 21[16.7 µM]
OCCN1CN(c2ccccc2)C(=S)N(c2ccccc2)C1 | -9
CCc1cc2c(nc1CC)CCCN2S(=O)(=O)c1cccs1 | 12
C[C@@H]1CN([C@@H](C)CO)S(=O)(=O)c2ccc(C3=CCCCC3)cc2O[C@H]1CN(C)Cc1ccccc1 | 34[16.7 µM]
CN1CCN(C(=O)C[C@H]2CC[C@H]3[C@H](COc4ccc(NC(=O)C5CCOCC5)cc4C(=O)N3C)O2)CC1 | 7[16.7 µM]

Later entries:
SMILES | HIV Env fusion
O=C(C[C@H]1CC[C@H]2NC[C@H](O)COC[C@@H]2O1)NCCc1ccncc1 | -8[16.7 µM]
CNC[C@H]1OCCCC[C@H](C)Oc2ccc(NC(=O)Nc3ccc4c(c3)OCO4)cc2C(=O)N([C@H](C)CO)C[C@@H]1C | 9[16.7 µM]
CN1CCN(C(=O)c2cc3c(c(-c4cccc(-c5cccc(F)c5)c4)n2)[C@H](CCO)N(S(=O)C(C)(C)C)C3)CC1 (stereo not given in full) | 7[16.7 µM]
Cc1ccc(-c2cnc3c(c2)C(=O)N([C@H](C)CO)C[C@@H](C)[C@@H](CN(C)S(C)(=O)=O)O3)cc1 | 1[16.7 µM]
C[C@@H]1CN([C@H](C)CO)C(=O)c2cc(NC(=O)CCN3CCOCC3)ccc2O[C@H]1CN(C)Cc1ccncc1 | 1[16.7 µM]
O=C1c2ccccc2NC(c2cc(Cl)cc(Cl)c2O)N1CCc1ccccn1 (stereo not given) | 5
C[C@@H]1CN([C@H](C)CO)C(=O)c2c(c3ccccc3n2C)-c2ccccc2CO[C@@H]1CN(C)C(=O)[C@@H](Cc1ccccc1)N(C)C | -36[16.7 µM]
CO[C@@H]1CN(C)C(=O)c2cc(NC(=O)c3ccc(F)cc3)ccc2OC[C@@H](C)NC[C@@H]1C | 1[16.7 µM]
CC(C)NC(=O)N(C)C[C@H]1OCCCC[C@@H](C)Oc2ccc(N(C)C)cc2C(=O)N([C@H](C)CO)C[C@H]1C | -11[16.7 µM]
O=S1(=O)c2ccc(Br)cc2OC[C@H](c2ccccc2)N1Cc1ccccc1 | 16

Sorted by formula weight (rising): part of the list above.
SMILES | HIV Env fusion
O=C(C[C@H]1CC[C@H]2NC[C@H](O)COC[C@@H]2O1)NCCc1ccncc1 | -8[16.7 µM]
COc1ccc(C2CC(=O)C(c3cccc(OC)c3)=CN2Cc2ccccc2)cc1 (stereo not given) | -15
O=C(C[C@@H]1CC[C@@H](NC(=O)Cc2ccccn2)[C@H](CO)O1)NCCc1ccncc1 | -12[16.7 µM]
O=S1(=O)c2ccc(Br)cc2OC[C@H](c2ccccc2)N1Cc1ccccc1 | 16
Cc1noc(C)c1S(=O)(=O)N1CCCc2nc(-c3ccc(Br)cc3)ccc21 | -5
C[C@H]1CN([C@@H](C)CO)C(=O)CCCn2cc(nn2)CO[C@H]1CN(C)Cc1ccc2c(c1)OCO2 | -5[16.7 µM]
CC(C)(C)[S@@](=O)N1Cc2cc(C(=O)N3CCOCC3)nc(-c3cccc(-c4ccc(C#N)cc4)c3)c2[C@H]1CCO | -12[16.7 µM]
COc1ccccc1C#Cc1cnc2c(c1)C(=O)N([C@H](C)CO)C[C@H](C)[C@H](CN(C)S(=O)(=O)c1cn(C)cn1)O2 | -15[16.7 µM]
CNC[C@H]1OCCCC[C@H](C)Oc2ccc(NC(=O)Nc3ccc4c(c3)OCO4)cc2C(=O)N([C@H](C)CO)C[C@@H]1C | 9[16.7 µM]
C[C@@H]1CN([C@@H](C)CO)C(=O)Cc2cc(NS(=O)(=O)c3ccc(Cl)cc3)ccc2O[C@@H]1CN(C)Cc1ccc(C(=O)O)cc1 | -7[16.7 µM]

(continued)
SMILES | HIV Env fusion
C[C@@H]1C=CCCO[C@]12C(=O)N(Cc1ccccc1C(F)(F)F)c1ccccc12 | 17
O=C(NC1CCC1)[C@H]1[C@H](CO)[C@H]2Cn3c(ccc(-c4cccc(F)c4)c3=O)[C@@H]1N2Cc1cocn1 | 5[16.7 µM]
O=C(C[C@@H]1C[C@@H]2c3cc(NC(=O)c4ccc5c(c4)OCO5)ccc3O[C@@H]2[C@H](CO)O1)NC1CCCCC1 | 9[16.7 µM]
CN(C)CC(=O)N1CC2(C1)[C@H](c1ccccc1)[C@H](CO)N2C(=O)C1CCC1 | -15[16.7 µM]
COc1ccc(C(=O)Nc2ccc3c(c2)C(=O)N(C)C[C@@H](OC)[C@H](C)CN(C(=O)C2CC2)[C@H](C)CO3)cc1 | 20[16.7 µM]
CC(C)(C)S(=O)(=O)N1C[C@H]2C(=C(CCO)C[C@H]3C(=O)N(c4ccccc4)C(=O)[C@H]32)[C@@H]1CCO | 19
O=C(C[C@H]1C[C@H]2c3cc(NC(=O)Nc4ccccc4F)ccc3O[C@H]2[C@@H](CO)O1)NCc1ccc2c(c1)OCO2 | -12[16.7 µM]
COc1ccc(-c2ccc3c(c2)[C@@H]2[C@@H](CCN2C(=O)C2CCC2)[C@H](CO)N3C)cc1 | 1[16.7 µM]
O=C(C[C@H]1CC[C@@H]2[C@H](COC[C@@H](O)CN2Cc2ccccc2F)O1)NC1CCC1 | -4[16.7 µM]
O=C(C[C@H]1C[C@@H]2c3cc(NC(=O)NC4CCCC4)ccc3O[C@@H]2[C@@H](CO)O1)NCc1ccncc1 | -14[16.7 µM]
C=C[C@@H](COC(C)=O)N(C(=O)OC(C)(C)C)S(=O)(=O)c1ccc(Br)cc1 | 2[16.7 µM]
C=CCOC(=O)[C@H]1[C@@H]2C(=O)O[C@@H](c3ccccc3)[C@@H](c3ccccc3)N2[C@@H](c2ccc(OCCOC(=O)[C@H]3C[C@H]4C(=O)N[C@@H](CC(C)C)C(=O)N4[C@H]3c3cccc(OCCO)c3)cc2)[C@]12C(=O)Nc1ccccc12 | 4[16.7 µM]
C[C@@H]1CN([C@@H](C)CO)C(=O)Cc2cc(NS(=O)(=O)c3ccccc3)ccc2O[C@@H]1CN(C)Cc1ccc(C(=O)O)cc1 | 9[16.7 µM]
COC(=O)[C@]12C[C@H](CC(=O)NCCC(C)C)C(=O)N(CCc3ccc(OC)c(OC)c3)C1=C[C@H](C(C)(C)C)O[C@@H]2C | 15
O=C(C[C@@H]1C[C@@H]2c3cc(NC(=O)CC4CC4)ccc3O[C@@H]2[C@@H](CO)O1)NCC1CC1 | ?
CO[C@@H]1CN(C)C(=O)c2cc(NC(=O)Nc3ccccc3F)ccc2OC[C@@H](C)N(C(C)=O)C[C@@H]1C | 13[16.7 µM]

The list is partial (hit frequency here may not be typical).
